# Assay outcomes (PubChem)
# Mtb H37Rv – Mycobacterium tuberculosis H37Rv growth inhibition, cell based, confirmatory dose response (AID 1949); most inactive calls were filed without a number and no value below 0 was filed; one-dose inhibition, % at 10 µg/mL; IC50 in µg/mL for titrated hits; 100,000 tested, 1.6% active;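 active means confirmed in a dose series; inconclusive means about 50% or more but not retested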;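 further: bacteria grown 7 days with compound before Alamar blue readout; 0% = untreated bacteria and 100% = reference antibiotic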
# * marks the source's active call; other numbers are inactive results; i = inactive; ? = inconclusive. These rows are one share of the data (hit frequency here may not be typical).
molecule	Mtb H37Rv
CC1CN(C(=O)C2CCCO2)C(C)CN1C(=O)C1CCCO1 (centres undefined)	i
O=C(Oc1ccc(Cl)cc1)c1sc2ccccc2c1Cl	24µg/mL*
CN(CC(=O)NCc1cccnc1)S(=O)(=O)c1ccccc1	i
CN(C)C(=O)CCSc1ccc(Cl)cc1	i
CC(C)C(=O)Nc1cccc(C(=O)N2CCC(Cc3ccccc3)CC2)c1	2%
CC(NC(=O)C1C2C=CC(C2)C1C(=O)O)c1ccccc1 (centres undefined)	i
CC(Sc1ncnc2sc3c(c12)CCCC3)C(=O)OCc1ccccc1 (centres undefined)	i
CCc1ccc(OC(C)c2nnc(SCC(=O)Nc3ccc([N+](=O)[O-])cc3C)n2C)cc1 (centres undefined)	13%

molecule	Mtb H37Rv
COc1ccc(CNC(=O)C(=O)Nc2cccc(OC)c2)cc1	i
Cc1cc(=O)oc2c(CN3CCN(CCO)CC3)c(O)ccc12	i
O=C1Nc2ccccc2C12OC1CCCCC1O2 (centres undefined)	?
COc1ccc(CCNC(=O)C2CCN(C(=O)Cc3ccccc3)CC2)cc1OC	i
O=C(CN(c1ccc(F)cc1)S(=O)(=O)c1ccc2c(c1)OCCO2)NC1CCCC1	i
Cc1cc(Br)c(Nc2c([N+](=O)[O-])cc3c4c(cccc24)C(=O)N(CCO)C3=O)cc1C	i
COC(=O)c1ccc(NC(=O)CSc2nnc(Cc3ccccc3)o2)cc1	i
O=C(OCc1ccc(S(=O)(=O)c2ccccc2)cc1)c1cc(=O)[nH]c2ccccc12	i

molecule	Mtb H37Rv
CCn1cc(C(=O)O)c(=O)c2cnc(N3CCN(C(=S)NC4CC5C=CC4C5)CC3)nc21 (centres undefined)	29%
Cc1ccc(S(=O)(=O)N(CC(=O)Nc2cccc(N(C)S(C)(=O)=O)c2)c2cc(C)cc(C)c2)cc1	i
O=C(CN1CCCCC1)Nc1ccc(S(=O)(=O)N2CCOCC2)cc1	i
O=C(COc1ccc(S(=O)(=O)NC2CCCCC2)cc1)Nc1cccc(F)c1	i
COc1cccc(OC)c1C(=O)NC(=S)Nc1ccc2c(c1)Cc1ccccc1-2	3%
N/C(=N\OC(=O)CCCOc1ccc(Cl)cc1Cl)c1ccccn1	i
Cn1c(C(O)c2ccc(OCc3ccccc3)cc2)nc2ccccc21 (centres undefined)	i
COc1ccc(Cc2nc(-c3ccccc3)no2)cc1	i

molecule	Mtb H37Rv
C=CCn1c(SCC(=O)c2ccccc2)nc2sc(C)cc2c1=O	i
CCOC(=O)Cc1c(C)nc2c(C#N)c(C)nn2c1C	i
COc1cc(NC(=O)c2c(F)c(F)c(F)c(F)c2F)c(OC)cc1Cl	?
O=C(Cc1nc2ccccc2[nH]1)N1CCCCC1	i
Cn1nc([N+](=O)[O-])nc1Sc1nnc(-c2ccccc2)o1	50%
CCOC(=O)c1c(N)sc2c1CCCCCC2	i
O=S(=O)(CCc1ccccc1)c1ccccc1	i
Nn1cnn2c(SCC(=O)c3cccs3)nnc12	3%

molecule	Mtb H37Rv
CCCCn1c(O)c(/C=C2\C=CC=N2)c(=O)[nH]c1=O	<0.1µg/mL*
COc1ccc(NC(=O)C2=C(C)NC3=C(C(=O)CC(c4ccc(OC)c(OC)c4)C3)C2c2ccc(C)c([N+](=O)[O-])c2)cc1 (centres undefined)	5%
CCOC(=O)C(C)Oc1ccc2c(-c3ccc(OC)cc3)cc(=O)oc2c1 (centres undefined)	1.4µg/mL*
CCc1ccccc1NS(=O)(=O)c1ccc2ccccc2c1	i
COC(=O)c1c(NS(=O)(=O)c2ccc3c(c2)OCCO3)sc2c1CCCC2	i
CN(c1cccc(NC(=O)c2cccc(Cl)c2)c1)S(C)(=O)=O	i
COc1ccc2c(c1)CCc1c-2nc2ccc(Br)cc2c1C(=O)O	i
Nc1nc(SCc2ccccc2Cl)[nH]c(=O)c1-c1ccccc1	i

molecule	Mtb H37Rv
OCCNC(=S)Nc1ccc(F)cc1	2%
CN(C)CCNC(=O)C(C)(C)Oc1ccc(Cl)cc1	2%
Cc1c(OCC(=O)Nc2ccccc2)ccc2c3c(c(=O)oc12)CCC3	1%
COC(=O)c1ccccc1NC(=O)C(C)NS(=O)(=O)c1ccc(Cl)cc1 (centres undefined)	3%
COc1ccccc1N1CCN(C(=O)CCc2ccc(S(=O)(=O)NCc3ccccc3)cc2)CC1	11%
COc1ccc(OCCNC(=S)Nc2cccc3ccccc23)cc1	12%
COc1ccc(CC(=O)Oc2ccc(Br)cc2Cl)cc1	i
COc1ccccc1NC1=C(Cl)C(=O)N(c2ccccc2C)C1=O	3%

# Next section; the last 5 above are carried over.
molecule	Mtb H37Rv
COC(=O)c1ccccc1NC(=O)C(C)NS(=O)(=O)c1ccc(Cl)cc1 (centres undefined)	3%
COc1ccccc1N1CCN(C(=O)CCc2ccc(S(=O)(=O)NCc3ccccc3)cc2)CC1	11%
COc1ccc(OCCNC(=S)Nc2cccc3ccccc23)cc1	12%
COc1ccc(CC(=O)Oc2ccc(Br)cc2Cl)cc1	i
COc1ccccc1NC1=C(Cl)C(=O)N(c2ccccc2C)C1=O	3%
C=CCn1c(SC(CCO)C(=O)N2CCCCC2)nc2sc3c(c2c1=O)CCCC3 (centres undefined)	i
COc1ccc(C(=O)NCC(=O)OCc2ccc(C(=O)c3ccccc3)cc2)cc1	3%
O=C(NCc1ccc(-c2nc3ccccc3s2)cc1)c1cccnc1	6%
O=C(NCc1cccs1)c1cccnc1	0%
CC(Oc1cccc(NC(=O)c2ccccc2[N+](=O)[O-])c1)C(=O)c1ccc(Cl)cc1 (centres undefined)	i
Cc1nc2cc(NC(=O)NCCCO)ccc2o1	i
COC(=O)COc1cccc(NC(=O)c2ccccc2)c1	?
COCCCNC(=O)CN(Cc1ccccc1)S(=O)(=O)c1ccc(OC)c(C)c1	2%

molecule	Mtb H37Rv
Cc1cccc(C)c1OCC(=O)N1CCc2ccccc2C1	5%
COC(=O)c1cccc(NC(=O)CC23CC4CC(C2)CC(CC(=O)Nc2cccc(C(=O)OC)c2)(C4)C3)c1	i
CCCCC(=O)NCC(CC)CCCC (centres undefined)	i
CS(=O)(=O)N(CC(=O)O)c1ccc(C23CC4CC(CC(C4)C2)C3)cc1	i
CCc1ccc2[nH]c(C)c(CN3CCC(C)CC3)c(=O)c2c1	i
COc1cc(NS(=O)(=O)c2ccc(NC(=O)c3ccc(Cl)c(Cl)c3)cc2)nc(OC)n1	i
Oc1c(C2=NNC(c3ccccc3)C2)ccc2ccccc12 (centres undefined)	?
CN1C(=O)CN(c2ccccc2)C1=S	i

molecule	Mtb H37Rv
Cc1ccc(OCCNC(=O)c2sc3ccccc3c2Cl)cc1	3%
COc1ccc(NC(=O)c2ccc(S(=O)(=O)N3CCCC3)cc2)cc1	i
CC(C)c1ccccc1NC(=O)CCSc1ccccc1	i
O=C(Nc1ccccc1)N1CCCCC1c1cccnc1 (centres undefined)	i
CC(C)(O)C#Cc1ccc(C(=O)N2CCCC2C(=O)O)s1 (centres undefined)	i
COC(=O)C(Sc1nc2c(cc1C#N)CCCC2)c1ccccc1 (centres undefined)	i
CCOC(=O)c1ccc(CNC(=O)C(CCSC)NC(=O)c2ccccc2)o1 (centres undefined)	i
COc1ccc(CN(CCC(Cc2ccccc2)c2ccco2)C(C)=O)cc1 (centres undefined)	i

molecule	Mtb H37Rv
O=C(Nc1ccc(NC(=S)NC(=O)c2ccco2)cc1)c1cccc(Cl)c1	12%
C=CCn1c(CNC(=O)c2ccc(OC)cc2)n[nH]c1=S	4%
O=C(CCC(=O)Nc1ccccc1Cl)NNC(=S)Nc1ccccc1C(F)(F)F	i
Cc1nn(CCCC(=O)O)c(C)c1[N+](=O)[O-]	i
CCOc1ccc(S(=O)(=O)N(CC(=O)Nc2c(CC)cccc2CC)c2ccc(C)cc2)cc1	i
Cc1ccc(S(=O)(=O)NCCC(=O)Oc2cc(C)cc3oc(=O)cc(-c4ccccc4)c23)cc1	i
CCn1ncc(Br)c1C(=O)NC1CCCCC1	0%
CCOC(=O)N1CCN(C(=O)Nc2ccc(C)cc2)CC1	i

molecule	Mtb H37Rv
O=C(NCc1cccnc1)C(=O)Nc1ccc([N+](=O)[O-])cc1	i
Fc1ccc(C2=CC(c3cccc(Cl)c3)n3nnnc3N2)cc1 (centres undefined)	5%
CCOc1cc(C(=S)N2CCC(C(N)=O)CC2)ccc1OCc1ccccc1F	i
C=CCc1cccc(CNc2cnc3ccccc3c2)c1O	17%
CCCC(=O)Nc1ccccc1NC(=O)c1ccc(Cl)cc1	2%
O=C(c1cccs1)N1CCN(S(=O)(=O)c2ccccc2)CC1	i
N#Cc1ccc(C(=O)Nc2cccc(C(F)(F)F)c2)c(F)c1	3%
CCOc1ccccc1NC(=O)CN(Cc1ccc(Cl)cc1Cl)S(=O)(=O)c1ccccc1	2%

molecule	Mtb H37Rv
Cc1ccc(N2CC(C(=O)Oc3ccc(-c4ccccc4)cc3)CC2=O)cc1 (centres undefined)	3%
CC1=C(C(=O)Nc2ccc(C)c(Cl)c2)C(c2ccc(O)cc2)NC(=O)N1 (centres undefined)	i
COc1ccc(NC(=S)N2CCN(c3ccc(C(C)=O)cc3)CC2)cc1OC	i
Cc1ccc(C(=O)CCC(=O)Nc2ccccc2C)c(C)c1	i
CC(CNC(=O)C1CCCCC1)NC(=O)C1CCCCC1 (centres undefined)	i
CCOC(=O)c1c(NC(=O)c2ccccc2[N+](=O)[O-])sc2c1CCC(CC)C2 (centres undefined)	13%
COC(=O)c1ccc(NC(=O)c2ccc(N(C)S(=O)(=O)c3ccccc3)cc2)cc1	i
Cc1cc(N)n(-c2ccc(Br)cc2)n1	1%

# 4 of the compounds above, as labelled records.
> CCOC(=O)c1c(NC(=O)c2ccccc2[N+](=O)[O-])sc2c1CCC(CC)C2 (centres undefined)
- Mtb H37Rv: 13%

> Cc1ccc(C(=O)CCC(=O)Nc2ccccc2C)c(C)c1
- Mtb H37Rv: i

> CC(CNC(=O)C1CCCCC1)NC(=O)C1CCCCC1 (centres undefined)
- Mtb H37Rv: i

> Cc1cc(N)n(-c2ccc(Br)cc2)n1
- Mtb H37Rv: 1%

# Additional structures
molecule	Mtb H37Rv
O=C(Nc1cccc([N+](=O)[O-])c1)Nc1ccc2c(c1)CCC2	50%
CCN(C(=S)NC(=O)c1ccc(Cl)cc1Cl)c1ccccc1	5%
O=C(NC1CCCCC1)c1ccccc1NS(=O)(=O)c1ccc(Br)s1	i
CN1CCN(C(CC(=O)Nc2cccc(O)c2)C(=O)O)CC1 (centres undefined)	i
COc1ccc2nc(SCC(=O)NC3CCCCC3)[nH]c2c1	i
COCCN1C(=O)C(O)=C(C(=O)c2ccco2)C1c1ccccc1F (centres undefined)	i
CC(C)(C)C(=O)CC(O)(c1ccccc1)C(F)(F)F (centres undefined)	i
COc1cc(C(=O)Nc2cccc(-c3cn4cccc(C)c4n3)c2)cc(OC)c1OC	i

molecule	Mtb H37Rv
COc1cc(SC)ccc1C(=O)Nc1cc(C)ccc1C	4%
Cc1ccc2cc(CCC(=O)O)c(=O)[nH]c2c1	1%
S=C(NCCC1=CCCCC1)Nc1ccc2nc(-c3ccccn3)c(-c3ccccn3)nc2c1	4%
CCCCc1ccc2nc(NC(=O)CC)sc2c1	12%
CCn1c(SCC(=O)NC(C)c2ccccc2)nnc1-c1ccccc1C (centres undefined)	i
S=c1[nH]nc(Cc2ccccc2)n1Cc1ccccc1	i
CCOC(=O)c1sc2ncn(CC(=O)Nc3ccccc3OCC)c(=O)c2c1C	i
COc1ccc(S(=O)(=O)N(CC(=O)N2CCC(C(N)=O)CC2)c2ccc(C)cc2)cc1OC	i

molecule	Mtb H37Rv
O=C(O)c1ccc(CSc2ccccn2)cc1	1%
CCc1ccc(N(CC(=O)NCC2CCCO2)S(C)(=O)=O)cc1 (centres undefined)	0%
O=C(CCN1CCN(CCO)CC1)Nc1ccc(Cl)cc1	i
Cc1nc(NC(=O)c2cccs2)ccc1I	i
Cc1sc2nc(SCC(=O)NCc3ccccc3)n(-c3ccc(Cl)cc3)c(=O)c2c1C	i
COC(=O)c1cc(-c2ccccc2)sc1NC(=O)CSc1ncnc2sc3c(c12)CCC3	i
Cc1ccc(NC(=O)CN(c2ccccc2)S(=O)(=O)c2ccc(Cl)cc2)cc1	i
O=C(CN(Cc1ccc(F)cc1)S(=O)(=O)c1ccc(Cl)cc1)N1CCOCC1	i

molecule	Mtb H37Rv
O=C(CSc1n[nH]c(-c2ccco2)n1)Nc1ccccc1Cl	i
COc1ccc(CCN2C(=O)C3C4C=CC(C3C2=O)C2C(=O)N(CCc3ccc(OC)c(OC)c3)C(=O)C42)cc1OC (centres undefined)	3%
COc1ccc(N(CC(=O)Nc2ccc(S(=O)(=O)N3CCOCC3)cc2)S(=O)(=O)c2ccc(C)cc2)cc1OC	18%
CN1C2=NCCN2c2ccccc21	i
COc1cc2c(cc1NC(=S)Nc1ccc(F)cc1F)oc1ccccc12	45%
CN(CCc1ccccn1)S(=O)(=O)c1ccccc1	i
COc1ccc(NC(=O)C2CCCN2c2ccc(OC)c(OC)c2)cc1OC (centres undefined)	i
O=C1CC(C(=O)Nc2ccc([N+](=O)[O-])cc2)C(c2ccccc2)O1 (centres undefined)	i

molecule	Mtb H37Rv
CCC(Oc1ccccc1)C(=O)NCCc1cccc(Cl)c1 (centres undefined)	i
COc1ccccc1-n1c(/C=C/c2ccc([N+](=O)[O-])o2)nc2ccc(I)cc2c1=O	i
COC(=O)Cc1ccc(NC(=O)c2ccc(OC(C)=O)cc2)cc1	i
O=C(CN1C(=O)c2ccccc2S1(=O)=O)Nc1ccccc1-c1ccccc1	i
Cc1ccc(NC(=O)c2csc3c2CCCC3)c(C)c1	30%
Cc1cc(=O)oc2c(C)c(OCC(=O)OC(C)C)ccc12	?
